Screening results: PubChem, ICCB-Longwood Screening Facility, Harvard Medical School
MbtI inh: MbtI salicylate synthase inhibitors, primary screen, biochemical, fluorescence intensity; P9WFX0; purified MbtI enzyme, fluorescence intensity read-out; inhibition, %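 (about 17 µg/mL by stock and volumes)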; 0.89% of 100,000 active; AID 493033, 2011;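 active = above 50% in both replicates, above 80% if mildly self-fluorescent; inactive = the rest, strongly fluorescent compounds included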;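 also: 0% = mean of negative and 100% = mean of positive controls; one replicate is shown; some compounds called inactive have numbers as strong as hits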
MenB inh: M. tuberculosis MenB inhibitors, primary screen, biochemical, absorbance. inhibition, %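 (about 12 µg/mL by stock and volumes)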. 1,4-dihydroxy-2-naphthoyl-CoA synthase (Mycobacterium tuberculosis (strain ATCC 25618 / …. MenB enzyme assay, absorbance read-out; some hits fall short of the stated cut. 0.43% of 100,000 active. AID 540299, 2011;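 active = mean of two replicates above 30%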;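 also: 0% = no compound and 100% = wells with inactive enzyme; the first replicate is given; strong numbers were not always called active; inactives centre near -10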
PV pol inh: poliovirus RdRp elongation inhibitors, primary screen, biochemical, fluorescence polarization, total intensity. Genome polyprotein (Poliovirus type 1 (strain Mahoney)), P03300. 0.66% of 150,000 active. poliovirus polymerase elongation; stronger effect = lower value. % elongation, % (compound at 16.7 µg/mL); in the data active = % elongation below about 90%; also: some results filed as inactive read as strong as hits
Target sequence (P03300 1749-2209 limits assumed): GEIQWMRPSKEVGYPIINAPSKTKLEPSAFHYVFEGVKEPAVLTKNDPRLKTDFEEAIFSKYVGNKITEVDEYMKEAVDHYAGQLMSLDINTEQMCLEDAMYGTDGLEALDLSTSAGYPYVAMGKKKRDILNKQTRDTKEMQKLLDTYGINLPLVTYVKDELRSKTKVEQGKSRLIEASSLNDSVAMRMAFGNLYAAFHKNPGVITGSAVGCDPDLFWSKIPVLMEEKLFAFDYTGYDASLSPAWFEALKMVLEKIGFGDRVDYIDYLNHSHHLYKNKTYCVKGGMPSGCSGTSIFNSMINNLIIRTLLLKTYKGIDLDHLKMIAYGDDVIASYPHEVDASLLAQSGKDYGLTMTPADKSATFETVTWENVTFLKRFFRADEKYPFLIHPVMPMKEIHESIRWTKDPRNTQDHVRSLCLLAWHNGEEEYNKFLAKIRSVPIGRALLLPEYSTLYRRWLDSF
PV pol inh intensity: second read-out of PV pol inh, no call of its own (marks repeat the call); % elongation; measured here: total intensity read-out; formula for this scale not given here;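 total fluorescence in place of polarization; lower means less elongation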
The depositor's hits bear a star; / = not tested or not shown. The order is random (roughly 1.8% active in at least one column).

SMILES | MbtI inh | MenB inh | PV pol inh | PV pol inh intensity
COc1cccc(-c2noc(CSc3nc4sc5c(c4c(=O)n3C(C)C)CCC5)n2)c1 | -4.7 | -22.0 | 109.0 | 118.0
Cc1ccc(S(=O)(=O)N(C)CC(=O)N2CCCc3ccccc32)cc1 | -12.2 | 1.0 | 101.0 | 103.0
CC(C)OC(=O)COc1cc2oc(=O)c3c(c2cc1Cl)CCC3 | 18.9 | -19.4 | 101.0 | 102.0
O=c1[nH]c(=S)[nH]nc1-c1ccc(O)cc1 | 16.9 | -13.1 | 102.0 | 105.0
O=C(N/N=C/c1ccccc1Cl)C1CC1 | 24.0 | -7.2 | 100.0 | 103.0
COc1ccc(-c2cc3nccc(C4CCN(C(=O)OC(C)(C)C)CC4)n3n2)cc1 | -4.6 | -27.8 | 105.0 | 99.0
CC1CCC(NC(=O)C(NC(=O)C2CCC(C)CC2)C(C)C)CC1 (configuration not stated) | 2.5 | -2.9 | 102.0 | 103.0
CC(SC1=NN2CCCC(=O)N=C2S1)c1ccccc1 (configuration not stated) | 19.8 | -11.3 | 99.0 | 99.0
O=C(O)CCc1nc2cc(C(F)(F)F)ccc2n(Cc2ccccc2)c1=O | -1.5 | / | 105.0 | 109.0
C[n+]1c(-c2ccccc2)csc1NC1CCCCC1 | -16.6 | 9.2 | 104.0 | 108.0
COc1ccc2cc(C(C)C(=O)OCC(=O)N3CCCc4ccccc43)ccc2c1 (configuration not stated) | / | -17.8 | 111.0 | 110.0
CC(C)(C)c1ccc(S(=O)(=O)N2CCN(Cc3cc4c(cc3O)OCO4)CC2)cc1 | -19.6 | 9.5 | 103.0 | 105.0
CC1CCCC(C)N1C(=O)COc1cccc(Br)c1 (configuration not stated) | 2.6 | / | 99.0 | 96.0
CCc1nc2c(cnn2-c2ccccc2)c(=O)[nH]1 | 44.8 | -13.6 | 101.0 | 101.0
CN(CC1COc2ccccc2O1)S(=O)(=O)c1ccc(-c2cc(C(F)(F)F)no2)s1 (configuration not stated) | -27.1 | -12.2 | 103.0 | 102.0
C=CCn1c(NC(=O)CC)nc2ccccc21 | -7.0 | -88.7 | 104.0 | 100.0
Cc1ccc(Cn2c(SCC#N)nc3ccccc3c2=O)cc1 | 1.1 | -18.6 | 107.0 | 115.0
CCOC(=O)c1cc(-c2ccnn2C(=O)c2ccccc2)on1 | -0.6 | -29.4 | 99.0 | 94.0
CC(=Nc1ccc(S(=O)(=O)N2CCCC2)cc1)c1ccccc1 | -6.2 | / | 99.0 | 104.0
Oc1ccc2ccccc2c1C=NC1CC1 | 17.1 | -136.7 | 105.0 | 100.0

Part of the list above, with each value named.
CC1CCCC(C)N1C(=O)COc1cccc(Br)c1 (configuration not stated)
  MbtI inh: 2.6
  MenB inh: /
  PV pol inh: 99.0
  PV pol inh intensity: 96.0
O=c1[nH]c(=S)[nH]nc1-c1ccc(O)cc1
  MbtI inh: 16.9
  MenB inh: -13.1
  PV pol inh: 102.0
  PV pol inh intensity: 105.0

More results:
SMILES | MbtI inh | MenB inh | PV pol inh | PV pol inh intensity
Cc1cccc(NC2=CC(=O)CC(C)(C)C2)c1 | 33.4 | -19.6 | 102.0 | 102.0
CCCc1cc2c(=O)c(-c3nc4ccccc4n3C)coc2cc1O | / | -4.3 | 109.0 | 110.0
Cc1ccc(-c2nn3c(Cn4cnc5ccccc54)nnc3s2)cc1C | 115.1 | 11.2 | 95.0 | 98.0
CCC(=O)c1ccc(OCC(=O)NC2CCCCC2C)cc1 (configuration not stated) | -2.5 | -22.0 | / | /
Cc1nc2onc(OCC(=O)OCc3ccccc3)c2c(C)c1C | 11.7 | -15.2 | 100.0 | 102.0
CC1CCCN(c2ncccc2C(=O)NCC2CCCO2)C1 (configuration not stated) | -0.1 | -40.1 | 103.0 | 99.0
CCC(c1nnc(SCC(=O)NCC(F)(F)F)n1Cc1ccccc1)N(C)C (configuration not stated) | -10.1 | -1.2 | 102.0 | 100.0
Cc1cccc(S(=O)(=O)N2CCN(S(=O)(=O)c3ccc(C)c(C)c3)CC2)c1 | 0.6 | -8.0 | 103.0 | 105.0
COc1ccc2c(C=Nc3ccccc3F)c(O)n(C)c(=O)c2c1 | -5.8 | -6.9 | 109.0 | 120.0
CCCc1c(C(=O)NC2Cc3ccccc3C2)cnn1-c1ccccc1 | -0.8 | -25.8 | 106.0 | 103.0
CCc1cc2c(=O)n(-c3ccccc3)c(SCC(=O)c3ccccc3)nc2s1 | 4.6 | -8.5 | 105.0 | 103.0
O=C(CSCc1ccc(Cl)cc1)NC1CC1 | -6.8 | / | 98.0 | 100.0
O=C(NCc1cccs1)C12CC3CC(CC(C3)C1)C2 | -1.2 | 7.2 | 103.0 | 103.0
OC1(c2ccccc2F)CCNCC1 | -6.6 | 1.3 | 101.0 | 102.0
Cc1ccccc1OCC(=O)OCC(=O)Nc1cccc(Br)c1 | -8.6 | / | 101.0 | 104.0
CCOc1ccc(Nc2nc(N3CCCCC3)nc(N3CCCCC3)n2)cc1 | -6.2 | -22.8 | 104.0 | 107.0
CCCNC(=O)c1ccc2nc(N3CCOCC3)sc2c1 | 1.2 | -35.3 | 105.0 | 100.0
O=C1CN(c2ccccc2)C(=O)N1c1ccccc1 | -0.6 | -1.9 | 102.0 | 106.0
CC(Cc1ccccc1)NC(=O)c1ccccc1 (configuration not stated) | -10.1 | 13.2 | 99.0 | 105.0
CCCCc1ccc(NC(=O)NCCN2CCNC2=O)cc1 | -2.1 | -0.8 | 103.0 | 101.0

Entries of single compounds as entered above. Values in the order: MbtI inh, MenB inh, PV pol inh, PV pol inh intensity
Cc1nc2onc(OCC(=O)OCc3ccccc3)c2c(C)c1C in the list: 11.7, -15.2, 100.0, 102.0
CCCc1c(C(=O)NC2Cc3ccccc3C2)cnn1-c1ccccc1 in the list: -0.8, -25.8, 106.0, 103.0
CCOc1ccc(Nc2nc(N3CCCCC3)nc(N3CCCCC3)n2)cc1 in the list: -6.2, -22.8, 104.0, 107.0
O=C1CN(c2ccccc2)C(=O)N1c1ccccc1 in the list: -0.6, -1.9, 102.0, 106.0
Cc1cccc(S(=O)(=O)N2CCN(S(=O)(=O)c3ccc(C)c(C)c3)CC2)c1 in the list: 0.6, -8.0, 103.0, 105.0

(continued)
SMILES | MbtI inh | MenB inh | PV pol inh | PV pol inh intensity
N/C(=N\N=C\c1ccco1)c1nonc1N | 17.8 | -24.0 | 102.0 | 104.0
CCOc1ccc(-n2cc(-c3ccccc3)c3c(N4CCN(CC)CC4)ncnc32)cc1 | -24.5 | -14.5 | 103.0 | 103.0
CC(OC(=O)C1CC1)C(=O)Nc1cc(C(F)(F)F)ccc1Cl (configuration not stated) | -4.1 | / | 101.0 | 106.0
Cc1cc(I)ccc1NC(=O)c1ccc(C(C)(C)C)cc1 | -4.0 | -17.8 | 101.0 | 99.0
CC(C)(C)n1nnnc1C(c1cccc(C(F)(F)F)c1)N1CCC(O)CC1 (configuration not stated) | -6.8 | 15.4 | 100.0 | 101.0
CC1=CC2=NC(=N)/C(=C/C3CC=CCC3)C(=O)N2C=C1 (configuration not stated) | 98.7 | -43.4 | 123.0 | 130.0
CCN1C(=O)/C(=C/C=C2/Sc3cc(NC(C)=O)ccc3N2CC)N(c2ccccc2)C1=S | 8.7 | -10.6 | 102.0 | 98.0
NC(=O)c1ccc(NC(=O)c2cccc3c2OCCCO3)cc1 | -13.3 | -5.3 | 105.0 | 102.0
CSc1nnc(C)c(=O)n1N | 7.2 | -19.7 | 100.0 | 98.0
CCCS(=O)(=O)N1CCN(C(=O)COc2cccc(C)c2)CC1 | -9.1 | -5.7 | 100.0 | 102.0
CCNC(=O)C(C)Sc1ccccc1 (configuration not stated) | -12.6 | -16.0 | 99.0 | 103.0
CCC(CC)C(=O)N(c1ccc(OC)cc1OC)C1C=CS(=O)(=O)C1 (configuration not stated) | 1.1 | 3.6 | 100.0 | 100.0
